# MLL AF4-AF9 inh: inhibitors of AF4 peptide binding to AF9, primary screen, biochemical, AlphaScreen, biotin-AF4 peptide, FLAG-AF9, single point | Protein AF-9 (Homo sapiens), P42568 | inhibition, % at 10 µM | 350,000 tested, 0.47% active | AID 651704, 2012;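 active = every replicate reaching a set inhibition limit, whatever the replicate mean, cut at about 25% in these data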;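 note: 0% = plate neutral control median and 100% = total signal loss; the record names both 10 and 1 µM as test concentration; the first replicate is given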
# Target sequence (P42568 whole entry, looked up): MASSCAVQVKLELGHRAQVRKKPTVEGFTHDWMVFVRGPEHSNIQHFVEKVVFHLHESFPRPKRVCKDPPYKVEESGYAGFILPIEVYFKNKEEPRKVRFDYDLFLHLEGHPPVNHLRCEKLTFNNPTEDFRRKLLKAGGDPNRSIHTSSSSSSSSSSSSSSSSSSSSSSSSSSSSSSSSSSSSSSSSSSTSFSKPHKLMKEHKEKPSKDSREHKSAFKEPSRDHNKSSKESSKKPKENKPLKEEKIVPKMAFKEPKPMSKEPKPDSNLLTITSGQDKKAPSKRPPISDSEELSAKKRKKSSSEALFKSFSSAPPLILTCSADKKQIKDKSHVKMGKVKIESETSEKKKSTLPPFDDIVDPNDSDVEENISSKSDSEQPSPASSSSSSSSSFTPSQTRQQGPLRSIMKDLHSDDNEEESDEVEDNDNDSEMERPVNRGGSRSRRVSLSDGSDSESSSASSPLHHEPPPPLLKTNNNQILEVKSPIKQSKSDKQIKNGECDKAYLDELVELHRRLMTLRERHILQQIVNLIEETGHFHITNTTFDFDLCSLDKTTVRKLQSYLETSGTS
# rRNA inh HTS: reduced GFP signal of wild-type E. coli, primary screen, bacterial rRNA inhibitor project, GFP/RFP fluorescence, OD600, single point. GFP signal change (wild-type ribosome), % (concentration not given with the values). E. coli WT GFP vs humanized-ribosome RFP mutants, 24 h; active compounds read low; DMSO median 0, no signal -100. 350,000 tested, 1.6% active;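 active = significant combined selectivity score with lowered wild-type GFP, culture density cut under 30%, mutant RFP and density less affected; inactive = any of these conditions unmet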; note: one replicate is shown; some compounds called inactive have numbers as strong as hits
# FGF22 binding: binders of human FGF22 protein, primary screen, FGF22 synaptogenesis inhibitor project, biophysical, thermal shift, single point; Fibroblast growth factor 22 (Homo sapiens), Q9HCT0; recombinant FGF22 thermal shift, SYPRO orange fluorescence; percent of sucrose octasulfate shift, DMSO zero; calls only at 9.99 µM; 340,000 tested, 1.5% active; AID 651658, 2012;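 active = melting point raised past a set limit in the mean and every replicate; three in four hits are not shown here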
# Target sequence (Q9HCT0 whole entry, looked up): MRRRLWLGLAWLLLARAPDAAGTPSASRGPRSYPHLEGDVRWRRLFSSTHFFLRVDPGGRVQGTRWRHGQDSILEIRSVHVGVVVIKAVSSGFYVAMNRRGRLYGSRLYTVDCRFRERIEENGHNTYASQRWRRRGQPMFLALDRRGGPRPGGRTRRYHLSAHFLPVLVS
# ALR H2O2 inh: inhibitors of human ALR sulfhydryl oxidase, primary screen, biochemical, H2O2 detection, HRP-luminol luminescence, single point | FAD-linked sulfhydryl oxidase ALR (Homo sapiens), P55789 | purified ALR, DTT oxidation | inhibition, % (no concentration beside the values) | 290,000 tested, 3.8% active | AID 485317, 2010;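 active = mean and each replicate at 75% or more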;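 note: stock transfer was 7.5 nL into about 7.5 µL; 0% = neutral wells and 100% = wells with inactivated enzyme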
# Target sequence (P55789 whole entry, looked up): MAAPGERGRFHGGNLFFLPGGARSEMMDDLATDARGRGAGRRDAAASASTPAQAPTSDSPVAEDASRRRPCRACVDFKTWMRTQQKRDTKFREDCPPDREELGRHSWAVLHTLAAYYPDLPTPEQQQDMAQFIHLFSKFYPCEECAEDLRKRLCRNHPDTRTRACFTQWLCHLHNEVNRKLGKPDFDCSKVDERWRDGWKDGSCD
# rRNA inh HTS OD600: second read-out of rRNA inh HTS, no call of its own (marks repeat the call); OD600 change, %; measured here: OD600 growth;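 optical density of the mix in the first replicate; 0 = DMSO median and -100 = no signal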
# rRNA inh HTS RFP: recorded beside rRNA inh HTS, whose call it bears; RFP signal change, %; measured here: RFP humanized mutant strains;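 first replicate; 0 = DMSO median and -100 = no signal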
# An asterisk follows results filed as active; i = inactive; / = not tested or not shown. A portion of the library; rates above refer to the full screens.
SMILES,MLL AF4-AF9 inh,rRNA inh HTS,FGF22 binding,ALR H2O2 inh,others
COc1ccc(N(CC(=O)N/N=C/c2cc3ccc(OC)cc3nc2Cl)S(=O)(=O)c2ccccc2)cc1,/,/,/,-20,
C=C1C(O)[C@@H]2O[C@]3(CC[C@H](/C=C/C(C)[C@@H]4CC(C)=CC5(O[C@H](C[C@@](C)(O)CO)CCC5O)O4)O3)CC[C@H]2O[C@@H]1C(O)CC(C)[C@H]1OC2(CCCCO2)CCC1C (stereo partly specified),/,/,/,0,
O=[N+]([O-])c1ccc(-c2nnc(S)n2-c2ccccc2)cc1,/,/,/,-11,
C=C1SC(=Nc2ccccc2Cl)N(C(=O)c2sc3ccccc3c2Cl)C12CCCCC2,/,/,/,-1,
O=C(COc1ccc(Cl)cc1Cl)NC(=S)Nc1ccccc1C(=O)O,/,/,/,1,
CCCNC(=O)C[C@H]1CC[C@H]2[C@@H](COc3ccc(NC(=O)c4cc(F)cc(F)c4)cc3C(=O)N2C)O1,/,/,i,/,
Nc1[nH]c(C(=O)c2ccc(Br)cc2)c(-c2ccccc2)c1C(=O)NCCc1c[nH]c2ccccc12,/,/,i,/,
Cc1cccc2nc(-c3ccccc3)c(-c3ccc(CN4CCC(n5cc(-c6ccccc6)[nH]c5=O)CC4)cc3)nc12,/,/,i,/,
O=C(c1cccnc1)N1CCCCN2[C@H](C1)[C@@H](c1ccc(C#Cc3ccccc3)cc1)[C@@H]2CO,/,/,i,/,
COc1ccc(-c2c(C(=O)c3ccc(Br)cc3)[nH]c(N)c2C(=O)NCCc2c[nH]c3ccccc23)cc1OC,/,/,i,/,
Nc1[nH]c(C(=O)c2ccccc2)c(-c2ccc(Cl)cc2Cl)c1C(=O)c1ccccc1,/,/,i,/,
COc1ccccc1C#Cc1ccc2c(c1)[C@H]1[C@H](CCN1C(=O)c1ccncc1)[C@H](CO)N2,/,/,i,/,
COc1ccc(C(=O)c2[nH]c(N)c(C(=O)c3c[nH]c4ccccc34)c2-c2ccc(F)c(OC)c2)cc1,/,/,i,/,
COc1ccccc1NC(=O)N1CCCCN2[C@H](CO)[C@H](c3ccc(C#CC4CC4)cc3)[C@@H]2C1,6.6,/,/,/,
O=C(C1CCCC1)N1CC[C@H]2[C@H](CO)Nc3ccc(C#Cc4ccc(F)cc4)cc3[C@H]21,10,/,/,/,
CC(C)c1cn([C@H]2C[C@@H]3O[C@@H](CO)CC[C@@H]3O[C@@H]2CCc2ccc(C#CC3(O)CCCC3)cc2)nn1,-1.0,/,/,/,
OC[C@@H]1CC[C@@H]2O[C@H](CCc3ccc(C#Cc4ccccc4)cc3)[C@H](n3cc(-c4ccccc4)nn3)C[C@@H]2O1,-11,/,/,/,
O=C(NC[C@H]1CC[C@@H]2[C@@H](CN2S(=O)(=O)c2ccccc2[N+](=O)[O-])O1)C1CCC1,-3.7,/,/,/,
Cc1ccc(S(=O)(=O)NC[C@H]2CC[C@@H]3[C@@H](CN3Cc3ccccc3C(=O)O)O2)cc1,-3.1,/,/,/,
O=C(C[C@@H]1C[C@@H]2c3cc(NS(=O)(=O)c4ccc(F)cc4)ccc3O[C@@H]2[C@@H](CO)O1)NCc1ccc(-c2ccccc2)cc1,1.4,/,/,/,
O=C(NC[C@@H]1CC[C@H]2[C@H](CN2C(=O)Cc2ccncc2)O1)C1CCOCC1,-3.2,/,/,/,
O=C(NC[C@H]1CC[C@@H]2[C@@H](CN2S(=O)(=O)c2ccccc2[N+](=O)[O-])O1)C1CCCC1,-1.1,/,/,/,
O=C1CN(S(=O)(=O)Cc2ccccc2)C[C@H]2[C@H](c3ccc(C#Cc4ccc(F)cc4)cc3)[C@H](CO)N12,-0.9,/,/,/,
Cc1ccc(S(=O)(=O)N2C[C@H]3O[C@H](CNS(=O)(=O)c4ccccc4C)CC[C@H]32)cc1,-0.7,/,/,/,
C=CCN1CCCc2c(-c3ccc(OCCO)cc3)noc2-c2cc(OC)c(OC)cc2CC1,3.7,/,/,/,
O=C(NC[C@H]1CC[C@H]2[C@H](CN2C(=O)C2CCOCC2)O1)c1cccnc1,-7.4,/,/,/,
O=C(NC[C@H]1CC[C@H]2[C@H](CN2Cc2nccs2)O1)C1CCC1,-2.2,/,/,/,
O=C(NC[C@@H]1CC[C@@H]2[C@@H](CN2Cc2nccs2)O1)C1CCC1,-1.5,/,/,/,
CCC(=O)N[C@H]1C[C@@H]2O[C@@H](CO)CC[C@@H]2O[C@@H]1CCc1ccc(C#CCc2ccccc2)cc1,7.8,/,/,/,
CCCC#Cc1ccc(CC[C@H]2O[C@H]3CC[C@@H](CO)O[C@H]3C[C@H]2NS(=O)(=O)c2ccccc2)cc1,-1.2,/,/,/,

# Molecules above with a nitro group on carbon:
SMILES,MLL AF4-AF9 inh,rRNA inh HTS,FGF22 binding,ALR H2O2 inh,others
O=[N+]([O-])c1ccc(-c2nnc(S)n2-c2ccccc2)cc1,/,/,/,-11,
O=C(NC[C@H]1CC[C@@H]2[C@@H](CN2S(=O)(=O)c2ccccc2[N+](=O)[O-])O1)C1CCC1,-3.7,/,/,/,
O=C(NC[C@H]1CC[C@@H]2[C@@H](CN2S(=O)(=O)c2ccccc2[N+](=O)[O-])O1)C1CCCC1,-1.1,/,/,/,

# Further entries.
SMILES,MLL AF4-AF9 inh,rRNA inh HTS,FGF22 binding,ALR H2O2 inh,others
CC(C)(C)S(=O)N1Cc2cc(C(=O)NCc3ccc4c(c3)OCO4)nc(-c3cccc(-c4cccc(F)c4)c3)c2[C@H]1CCO (stereo partly specified),-2.4,/,/,/,
O=C(NC[C@H]1CC[C@@H]2[C@@H](CN2C(=O)CN2CCOCC2)O1)NC1CCCCC1,-12,/,/,/,
C=CCNC(=O)[C@@H]1[C@H]2C(=O)O[C@H](c3ccccc3)[C@H](c3ccccc3)N2[C@H](c2ccccc2OCCO)[C@@]12C(=O)N(C(=O)OCCOC)c1ccc(C#CC3(O)CCCCCC3)cc12,-1.1,/,/,/,
Cc1ccc(S(=O)(=O)NC[C@H]2CC[C@H]3[C@H](CN3Cc3cc(-c4ccccc4)on3)O2)cc1,-0.8,/,/,/,
CN(C)CC#Cc1cccc(-c2nc(C(=O)N3CCN(Cc4ccccc4)CC3)cc3c2[C@@H](CCO)N(S(=O)C(C)(C)C)C3)c1 (stereo partly specified),0.7,/,/,/,
O=C(NC[C@@H]1CC[C@H]2[C@H](CN2Cc2ccccc2F)O1)C1CCCCC1,-5.5,/,/,/,
CN(C)CC(=O)N[C@@H]1CC[C@@H](CC(=O)O)O[C@H]1CO,-4.2,/,/,/,
O=C(NC[C@H]1CC[C@H]2[C@H](CN2S(=O)(=O)c2ccccc2[N+](=O)[O-])O1)Nc1ccccc1,8.3,/,/,/,
O=C(NC[C@@H]1CC[C@@H]2[C@@H](CN2S(=O)(=O)c2ccccc2)O1)NC1CCCCC1,15,/,/,/,
OC[C@@H]1CC[C@@H]2O[C@H](CCc3ccc(-c4ccccc4)cc3)[C@H](n3cc(-c4ccccc4)nn3)C[C@@H]2O1,-1.5,/,/,/,
OC[C@@H]1CC[C@@H]2O[C@H](CCc3ccc(C#Cc4ccccc4)cc3)[C@@H](n3cc(-c4ccccc4)nn3)C[C@@H]2O1,-2.6,/,/,/,
OC[C@H]1CC[C@@H]2O[C@H](CCc3ccc(C#Cc4ccccc4)cc3)[C@@H](n3cc(-c4ccccc4)nn3)C[C@@H]2O1,-3.1,/,/,/,
CN(C)CC(=O)N[C@H]1C[C@@H]2O[C@@H](CO)CC[C@@H]2O[C@@H]1CCc1ccc(C2=CCCCC2)cc1,5.5,/,/,/,
CO[C@@H]1CN(C)C(=O)c2ccc(NC(=O)c3ccccn3)cc2OC[C@@H](C)N(C(=O)C2CCCCC2)C[C@H]1C,1.4,/,/,/,
COc1ccc([Si](C)(C)[C@@H]2[C@@H](CCn3cc([C@H](O)c4ccccc4)nn3)O[C@]3(C(=O)N(c4ccccc4)c4ccccc43)[C@H]2C)cc1,-0.5,/,/,/,
O=C(NC[C@@H]1CC[C@@H]2[C@@H](CN2Cc2ccccc2F)O1)C1CCCCC1,-2.7,/,/,/,
O=C(Nc1ccc(F)cc1)N[C@@H]1C[C@@H]2O[C@H](CO)CC[C@@H]2O[C@@H]1CCc1ccc(C2=CCCC2)cc1,-1.7,/,/,/,
O=C(c1cccnc1)N1CCCCN2[C@H](CO)[C@H](c3ccc(C#Cc4ccccc4)cc3)[C@H]2C1,-1.0,/,/,/,
O=C(N[C@H]1C[C@@H]2O[C@@H](CO)CC[C@@H]2O[C@@H]1CCc1ccc(-c2cccnc2)cc1)c1cccc(F)c1,-1.0,/,/,/,
C[C@@H]1CCCCO[C@H](CN(C)S(C)(=O)=O)[C@@H](C)CN([C@H](C)CO)C(=O)c2cc(NC(=O)Nc3ccc(F)cc3)ccc2O1,-1.4,/,/,/,
CS(=O)(=O)N[C@@H]1C[C@@H]2O[C@@H](CO)CC[C@@H]2O[C@@H]1CCc1ccc(-c2ccccc2F)cc1,-3.4,/,/,/,
COC(=O)C[C@H]1CC[C@@H]2[C@H](COc3ccc(NC(=O)Nc4cccc(Cl)c4)cc3C(=O)N2C)O1,0.4,/,/,/,
O=S(=O)(NC[C@@H]1CC[C@H]2[C@H](CN2Cc2cccc(-c3ccccn3)c2)O1)c1ccccc1,-0.3,/,/,/,
O=C(NC[C@@H]1CC[C@@H]2[C@@H](CN2Cc2ccccc2F)O1)C1CC1,-3.6,/,/,/,
CC(=O)N[C@H]1C[C@@H]2O[C@H](CO)CC[C@@H]2O[C@@H]1CCc1ccc(C#CCc2ccccc2)cc1,6.1,/,/,/,
COc1cccc(-c2ccc(CC[C@H]3O[C@H]4CC[C@H](CO)O[C@H]4C[C@@H]3NC(=O)CN(C)C)cc2)c1,6.4,/,/,/,
C[C@@H]1CN([C@@H](C)CO)C(=O)c2cc(NC(=O)NC3CCCCC3)ccc2O[C@H]1CN(C)Cc1ccncc1,/,-4,/,/,rRNA inh HTS OD600=-3;rRNA inh HTS RFP=-2.8
CCS(=O)(=O)Nc1ccc2c(c1)C(=O)N(C)C[C@H](OC)[C@H](C)CN(CC1CCCC1)[C@H](C)CO2,/,2,/,/,rRNA inh HTS OD600=-2;rRNA inh HTS RFP=-1.1
C[C@H](CO)N1C[C@H](C)[C@@H](CN(C)Cc2ccc(C(=O)O)cc2)Oc2c(NC(=O)CCC(F)(F)F)cccc2C1=O,/,-2,/,/,rRNA inh HTS OD600=-6;rRNA inh HTS RFP=-0.9
CO[C@@H]1CN(C)C(=O)c2cc(NC(=O)Nc3cccc(F)c3)ccc2OC[C@H](C)N(C(=O)C2CC2)C[C@@H]1C,/,-5,/,/,rRNA inh HTS OD600=-10;rRNA inh HTS RFP=4.4

# Structures from the list above that have two or more sulfur atoms, in the order listed:
SMILES,MLL AF4-AF9 inh,rRNA inh HTS,FGF22 binding,ALR H2O2 inh,others
C=C1SC(=Nc2ccccc2Cl)N(C(=O)c2sc3ccccc3c2Cl)C12CCCCC2,/,/,/,-1,
Cc1ccc(S(=O)(=O)N2C[C@H]3O[C@H](CNS(=O)(=O)c4ccccc4C)CC[C@H]32)cc1,-0.7,/,/,/,

# Further entries.
SMILES,MLL AF4-AF9 inh,rRNA inh HTS,FGF22 binding,ALR H2O2 inh,others
COc1ccc(NC(=O)N(C)C[C@@H]2Oc3c(NS(=O)(=O)c4ccccc4)cccc3C(=O)N([C@H](C)CO)C[C@H]2C)cc1,/,0,/,/,rRNA inh HTS OD600=2;rRNA inh HTS RFP=-1.5
C[C@@H]1CN([C@@H](C)CO)C(=O)c2ccccc2-c2ccccc2CO[C@@H]1CN(C)C(=O)Cc1ccccc1,/,0,/,/,rRNA inh HTS OD600=1;rRNA inh HTS RFP=-1.3
C[C@H](CO)N1C[C@H](C)[C@H](CN(C)Cc2cccc(F)c2)Oc2cc(-c3ccc(F)cc3)ccc2S1(=O)=O,/,-2,/,/,rRNA inh HTS OD600=-1;rRNA inh HTS RFP=0.4
O=C1CCCc2cnnn2COCCN1,/,8,/,/,rRNA inh HTS OD600=20;rRNA inh HTS RFP=-2.9
Cc1ccccc1S(=O)(=O)N1[C@H](C#N)[C@@H](c2ccccc2-c2cccc(F)c2)[C@@H]1CO,/,-24,/,/,rRNA inh HTS OD600=-37;rRNA inh HTS RFP=-1.3

# Random excerpt: 2 entries already listed
SMILES,MLL AF4-AF9 inh,rRNA inh HTS,FGF22 binding,ALR H2O2 inh,others
O=C(c1cccnc1)N1CCCCN2[C@H](C1)[C@@H](c1ccc(C#Cc3ccccc3)cc1)[C@@H]2CO,/,/,i,/,
Cc1ccccc1S(=O)(=O)N1[C@H](C#N)[C@@H](c2ccccc2-c2cccc(F)c2)[C@@H]1CO,/,-24,/,/,rRNA inh HTS OD600=-37;rRNA inh HTS RFP=-1.3

# Screening data from PubChem BioAssay.
